Sa RN4220 lethal – kills Staphylococcus aureus RN4220 | inhibition, % (concentration not given with the values) | actives 0.33% (n = 330,000) | S. aureus RN4220 growth, OD600, 16 h | AID 1259311;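 active = z-score of -3 or lower and OD600 up to 0.18 on both plates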;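 note: plate controls were untreated cells for no effect and reference antibiotic for full effect; stock transfer was 100 nL into about 80 µL; one replicate is shown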
PrP UTR inh – suppresses PrP 5' UTR mRNA reporter expression; AID 488862; cell-based PrP 5' UTR mRNA reporter, plate reader; actives 0.35% (n = 340,000); inhibition, % (no concentration beside the values);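 active = every replicate at 50% or more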;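 note: 0 = median of the neutral control wells; tested in H4 reporter cells; numbers are from one replicate; inactives centre near -14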
BJeLR viability – BJeLR cell viability loss; BJeLR (HRASV12) viability, CellTiter-Glo ATP luminescence, 48 h; reference of the scale not given here; inhibition, % (test concentration not listed); actives 0.17% (n = 300,000); AID 1554;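 active = replicate mean above 50%; inconclusive = above 50% but judged a plate artefact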;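 note: 50 nL library stock added to about 25 µL; numbers are from one replicate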
Mtb hypoxia inh – Mtb hypoxia fluorescent reporter inhibition | fluorescence inhibition, % (test concentration not listed) | M. tuberculosis hypoxia-regulated fluorescent reporter, fluorescence | actives 0.1% (n = 300,000);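 active = 35 to 45% if threefold the growth effect, above 45% if 1.5-fold the growth effect; inactive = the rest, general growth blockers included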;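 note: wells of about 50 µL received 100 nL stock; 0% = vehicle wells and 100% = reference inhibitor wells; whole bacteria with a GFP reporter of the hypoxia response; strong numbers were not always called active; many hits fall short of the cut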
Autofluor counter – counter-screen for toxin protease inhibitors: compound fluorescence. compound autofluorescence counterscreen, microsphere flow cytometry; hits give high values. fluorescence intensity (test concentration not listed). actives 3.1% (n = 360,000). AID 624483;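 active = at least 3 SD above the mean of all compounds, about 16000 in these data; inconclusive = too few beads counted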;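 note: 100 nL of 1 mM stock went into each well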
Sa ugtP lethal – growth inhibition of S. aureus ugtP deletion strain; growth inhibition, % (concentration not given with the values); S. aureus RN4220 ugtP deletion, OD600 growth, 16 h; some inactives read as strong as hits; actives 0.54% (n = 330,000);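 active = z-score under -3 and OD600 up to 0.15 on both plates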;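 note: plate controls were untreated wells for no effect and antibiotic for full effect; wells of about 80 µL received 100 nL stock; the first replicate is given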
Mtb hypoxia inh growth – further read-out of Mtb hypoxia inh, marked with its call; growth inhibition, %; measured here: M. tuberculosis growth (absorbance);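 0% = vehicle and 100% = reference antibiotic; read after six days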
* hit, by the source's call; ? = inconclusive; / = not tested or not shown.

SMILES | Sa RN4220 lethal | PrP UTR inh | BJeLR viability | Mtb hypoxia inh | Mtb hypoxia inh growth | Autofluor counter | Sa ugtP lethal
Cc1cccc(N2C(=O)CC(Sc3nc(C)c4c(n3)CCCC4)C2=O)c1 (stereo unspecified) | 6.0 | -1 | -20 | -1 | -2 | 8209 | 7
COC(=O)CSCC(=O)Nc1nnc(-c2cccc(C)c2)s1 | 0.8 | -7 | / | -5 | 7 | 2621 | -1
COc1ccc(/C=C/C(=O)N2CCN(c3ccccn3)CC2)cc1 | -1.0 | -10 | 2 | -2 | -7 | 4284 | 8
CNC(=S)N1CCN(CCNC2=CC(=O)CC(C)(C)C2)CC1 | 4.8 | -26 | 2 | 10 | 6 | 4231 | 11
CN(C(=O)CC(NC(=O)c1ccccc1Cl)c1ccccc1)c1ccccc1 (stereo unspecified) | -2.8 | -1 | 4 | -7 | -6 | 5387 | -1
O=C(c1ccc([N+](=O)[O-])cc1[N+](=O)[O-])N1CCN(C(=O)C2CCCO2)CC1 (stereo unspecified) | -0.5 | -6 | / | 15 | 13 | 3655 | 1
COC(=O)C1C(O)CC2CCC1N2C (stereo unspecified) | 1.2 | -12 | / | / | / | 6674 | 11
COC(=O)C=c1sc2ncnn2c1=O | -0.3 | / | / | 7 | 2 | / | 7
CC(C)(C)C(=O)CSc1nnc(-c2cccs2)n1CC1CCCO1 (stereo unspecified) | 3.6 | -19 | -2 | / | / | 2628 | 10
COc1ccccc1OC(=O)CN1C(=O)c2ccccc2C1=O | 1.7 | -10 | -5 | / | / | 5637 | 8
CCCCNC(=O)CCCCCn1c(=O)[nH]c2cc(C(=O)OC)ccc2c1=O | -0.5 | -7 | -14 | 15 | 4 | 3257 | 2
Cc1c(C(=O)Nc2ccc(Br)cc2)cnn1C | -2.0 | -53 | 0 | 2 | 3 | 10768 | -1
COCCNc1nc(SCc2ccccc2)nc2sc3c(c12)CCC3 | 8.2 | -18 | -6 | 7 | 8 | 10440 | 5
Cc1cccc2c1OCC/C2=N\NC(=O)COc1ccccc1Cl | / | -120 | -6 | / | / | 22273* | /
CCOC(=O)C1=C(CS(=O)(=O)c2ccccc2)NC(=O)NC1c1ccc(OC)c(OC)c1 (stereo unspecified) | -3.2 | -7 | -24 | -4 | 1 | 4659 | -2
COc1ccc(CN2C(=O)c3cccnc3C2=O)cc1S(=O)(=O)NC1CCCCC1 | 0.8 | -19 | -11 | 3 | 4 | 5760 | 0
COc1ccc(-n2c(CNCCc3ccc(C)cc3)nc3ccccc3c2=O)cc1 | -0.7 | -19 | 6 | 7 | 8 | 3431 | 10
COc1ccc(CCNC(=O)CCC2COc3ccccc3O2)cc1OC (stereo unspecified) | 4.5 | / | -12 | 7 | 3 | 9700 | 9
Cc1ccc(-c2noc(=O)n2CC(=O)Nc2ccc(S(=O)(=O)NC3CC3)cc2)cc1 | 3.1 | -30 | 0 | 3 | 10 | 5040 | -2
Cc1ccccc1-c1nnc(Cc2ccccc2)o1 | 8.1 | -73 | -6 | 22 | 26 | 2452 | 19
Cc1ccc(NC(=O)c2c(C(F)(F)F)nn(C)c2Cl)cc1C | 3.6 | -23 | -3 | 10 | 11 | 19260* | 0
COC(=O)[C@H](Cc1c[nH]c2ccccc12)NC(=O)NCc1ccc(OC)c(OC)c1 | 4.3 | -11 | -1 | 6 | 2 | 3217 | -5
O=C(CN(C1CCCCC1)S(=O)(=O)c1ccc(F)cc1)NCCCO | 6.8 | -5 | 11 | 3 | 8 | 10308 | 10
O=C(c1coc2ccc(O)cc12)C1CC1 | 4.6 | -31 | -5 | 3 | 9 | 3324 | 1
COC(=O)c1sc(NC(=O)CSc2n[nH]c(N)n2)c(C(=O)OC)c1C | 6.3 | 3 | 2 | -3 | -3 | 3202 | 7

The last 4 compounds of the section above are carried over, then new ones follow.
SMILES | Sa RN4220 lethal | PrP UTR inh | BJeLR viability | Mtb hypoxia inh | Mtb hypoxia inh growth | Autofluor counter | Sa ugtP lethal
COC(=O)[C@H](Cc1c[nH]c2ccccc12)NC(=O)NCc1ccc(OC)c(OC)c1 | 4.3 | -11 | -1 | 6 | 2 | 3217 | -5
O=C(CN(C1CCCCC1)S(=O)(=O)c1ccc(F)cc1)NCCCO | 6.8 | -5 | 11 | 3 | 8 | 10308 | 10
O=C(c1coc2ccc(O)cc12)C1CC1 | 4.6 | -31 | -5 | 3 | 9 | 3324 | 1
COC(=O)c1sc(NC(=O)CSc2n[nH]c(N)n2)c(C(=O)OC)c1C | 6.3 | 3 | 2 | -3 | -3 | 3202 | 7
CCn1cc(/C=N/NS(=O)(=O)c2ccc(C)cc2)c(C)n1 | / | -10 | 14 | / | / | 2152 | /
CC1(C)CC(=O)C2=C(C1)N=C1SCCC(=O)N1C2c1ccc(C(F)(F)F)cc1 (stereo unspecified) | 3.5 | 13 | -3 | 8 | 5 | 22472* | -2
CC(C)(C)c1cc(C(=O)N/N=C/c2cc3c(cc2Br)OCO3)n[nH]1 | / | -8 | 7 | / | / | 5159 | /
CSCCC(NS(=O)(=O)c1ccc(C)cc1)C(=O)N1CCCCCCC1 (stereo unspecified) | 6.5 | -17 | / | 11 | 5 | 3976 | 8
Cc1ccccc1C(=O)Nc1ccc(C(=O)N/N=C/c2ccncc2)cc1 | / | -5 | 0 | / | / | 3337 | /
COc1cccc(NC(=O)c2ccc(NS(=O)(=O)c3cccs3)cc2)c1 | 0.1 | 2 | / | 0 | 9 | 6918 | -2
Cc1cnc(C(=O)OCc2ccc(COC(=O)c3cnc(C)cn3)cc2)cn1 | -6.8 | -18 | 0 | 17 | 6 | 4722 | 1
Cc1[nH]n(-c2ccccc2)c(=O)c1N=Nc1ccc2c(c1)OCCO2 | -1.5 | -20 | 0 | 5 | 9 | 4598 | 3
CC(=NNC(=O)C1(C)CC1(Br)Br)c1ccc(C)cc1C (stereo unspecified) | 2.3 | / | / | 11 | -3 | / | 9
CCc1ccc(NC(=O)c2ccc3ncsc3c2)cc1 | 6.1 | / | -15 | 6 | 3 | / | 7
Nc1nc(N2CCOCC2)n[nH]1 | 5.7 | -16 | / | 15 | 2 | 3624 | 3
CCN(C(=O)Oc1ccccc1)c1ccc(C(O)(C(=O)OC)C(F)(F)F)cc1 (stereo unspecified) | -3.4 | -7 | 8 | -4 | 9 | 2486 | -7
O=C(c1cc(-c2ccc(O)cc2)on1)N1CCCc2ccccc21 | 16 | -35 | 2 | -4 | 14 | 5296 | 9
COC(=O)Cc1ccc(OC(=O)CCS(=O)(=O)c2ccc(Cl)cc2)cc1 | 2.8 | -23 | -5 | 4 | 3 | ? | -1
COC(=O)c1cc(OC)c(OC)cc1NC(=S)N1CCN(C/C=C/c2ccccc2)CC1 | -4.0 | -9 | -2 | -7 | -3 | 10526 | 9
COc1cc(NC(=O)COn2nnc3ccc(S(C)(=O)=O)cc32)cc(OC)c1 | 2.8 | -16 | 6 | 8 | 0 | 3948 | 1
O=C(NCN1CCc2ccccc2C1)c1cnccn1 | 0.0 | -6 | 2 | 10 | 6 | 11833 | 4
COC(=O)C1=C(c2ccc(Cl)c(C(F)(F)F)c2)CC2CCC1N2C(=O)NC1CC1 (stereo unspecified) | 8.1 | / | / | 7 | 7 | / | -6
CCOc1ccc(C2NC(=O)NC(C)=C2C(=O)OC)cc1C (stereo unspecified) | 6.3 | -14 | 2 | / | / | 2400 | 0
Cc1ccc(NC(=O)c2cc3ccccc3o2)nc1 | 7.4 | -77 | 1 | 2 | -3 | ? | 1
Cc1cccc(-n2c(C)cc(C)c(C#N)c2=O)c1 | 1.3 | -16 | -11 | -1 | 5 | 2365 | 5
CCC(=O)c1ccc(N2CCN(C(=O)c3ccc(F)cc3)CC2)c(F)c1 | 3.4 | -7 | 6 | 19 | 5 | 4094 | 5
CSc1ncc2c(=O)[nH]c(-c3ccccc3)nc2n1 | 1.4 | -3 | -3 | -2 | 4 | 3369 | 14
N#Cc1cnn2c(N)c(-c3ccc(Cl)cc3)cnc12 | 4.5 | -8 | 4 | 12 | 3 | 5206 | 4
O=C(Cn1cnc([N+](=O)[O-])c1)Nc1cc(Oc2ccc(Cl)cc2Cl)cc([N+](=O)[O-])c1 | 8.5 | 4 | 4 | -8 | 7 | ? | -8
Remaining list, next part
SMILES | Sa RN4220 lethal | PrP UTR inh | BJeLR viability | Mtb hypoxia inh | Mtb hypoxia inh growth | Autofluor counter | Sa ugtP lethal
CN(C(=O)COC(=O)CNC(=O)c1sc2ccccc2c1Cl)c1ccccc1 | 3.4 | -10 | 4 | 0 | -4 | 2143 | 4
CC(C)[C@H](NC(=O)c1ccccc1Cl)C(=O)OCC(=O)NC(=O)NC1CCCC1 | 2.7 | 3 | 8 | -3 | 7 | 5520 | -1
CCOC(=O)N1CCN(C(=O)CSCC(=O)Nc2nc(-c3ccc(Cl)s3)cs2)CC1 | 1.9 | -11 | 2 | 5 | 10 | 22328* | 25
O=C(CSC1=NCCS1)N1CCN(c2ccc(Cl)cc2)CC1 | 3.6 | -24 | 6 | 23 | 15 | 3805 | 0
CCCS(=O)(=O)N1CCCC(C(=O)NCCc2cccc(C)c2)C1 (stereo unspecified) | -0.1 | -27 | -12 | -2 | -2 | 3545 | 0
CCOC(=O)c1ccc(NC(=O)C2CCCO2)cc1 (stereo unspecified) | 1.6 | -51 | 1 | -6 | -3 | 4299 | -3
CCN1C(=O)C(=Cc2ccc(C)s2)C(=O)N(CC)C1=S | 3.8 | -27 | -13 | / | / | 3018 | 2
Cn1c(N)c(C(=O)COC(=O)COc2ccccc2C#N)c(=O)n(C)c1=O | -0.9 | -42 | -1 | 7 | 6 | 4301 | 9
CCCCN1CNC(=S)N(c2ccc(C(=O)OCC)cc2)C1 | 6.6 | -2 | 2 | / | / | 1987 | 12
Cn1c(=O)c2c(nc(CN3CCC(C(N)=O)CC3)n2Cc2c(F)cccc2Cl)n(C)c1=O | 3.3 | 1 | -6 | 3 | -3 | 7343 | 3
O=C(NCc1ccccc1)c1ccc(N2CCC3(CC2)CC(c2ccccc2)=NO3)c([N+](=O)[O-])c1 | 3.7 | -11 | 3 | 3 | 10 | 4458 | -4
Cn1c(N)c(Sc2ccc([N+](=O)[O-])cc2)c(=O)n(C)c1=O | -0.3 | -24 | 5 | -10 | -7 | 6132 | 10
CC1=NNC(=O)/C1=C\c1cn(-c2ccccc2)nc1-c1ccc(Cl)cc1 | -2.4 | -23 | 36 | 2 | 2 | 7724 | -14
CCCCc1ccc(S(=O)(=O)N2CCC3(CC2)OCCO3)cc1 | -0.4 | -17 | 2 | 5 | -1 | 5498 | 2
COc1cc(NC(=O)c2cc([N+](=O)[O-])ccc2NC(=O)CNCc2ccccn2)cc(OC)c1 | 5.6 | -15 | 0 | 10 | 4 | 3609 | -2
O=C1NC(=NCc2ccccc2)S/C1=C\c1ccccc1 | / | -6 | -8 | / | / | 7531 | /
CSc1ccc(C#N)cc1NC(=O)c1ccccc1 | -1.0 | 7 | 0 | -7 | -12 | 4609 | -3
CCCCc1cc(=O)oc2cc(C)cc(OC(C)C(=O)NCc3ccccn3)c12 (stereo unspecified) | 1.4 | -101 | 1 | 7 | 10 | 5349 | 5
Cc1ccc(S(=O)(=O)N2CCN(C(=O)CCCOc3ccc(Cl)cc3C)CC2)cc1 | -4.7 | 2 | 6 | -12 | 2 | 6122 | -17
Cc1ccc(C)c(N2CCN(S(=O)(=O)c3ccc4c(c3)NC(=O)CC(=O)N4)CC2)c1 | 23 | 6 | 0 | -3 | -3 | 4493 | 90*
Cc1cccc(NC(=O)CNC(=O)CN2CCN(C)CC2)c1C | 4.4 | -17 | / | 5 | -3 | 6503 | 3
O=C(OCC#CCSc1nnc(-c2cccc3ccccc23)o1)c1cccc2[nH]ccc12 | 18 | -21 | / | 8 | 10 | 4003 | 29
O=C(N/N=C/c1ccccc1Br)c1ccc(CSc2cccc3cccnc23)cc1 | / | -21 | 4 | / | / | 9262 | /
Cc1cc(C)n(-c2ccc(C(=O)Nc3cc(S(=O)(=O)N(C)C)ccc3Cl)cc2)n1 | 2.8 | -27 | -6 | 9 | 0 | 2147 | 26
C[C@H](NC(=O)NCCc1ccccc1)C(=O)O | -11 | -2 | -3 | 10 | 9 | 3243 | -9
Cc1cc(Br)cc(C)c1OCCCCN(C)C | 1.7 | -1 | 4 | 5 | -8 | 10583 | -4

Complete entries, looked up by structure. Order of screens: Sa RN4220 lethal | PrP UTR inh | BJeLR viability | Mtb hypoxia inh | Mtb hypoxia inh growth | Autofluor counter | Sa ugtP lethal
`Cc1ccc(C)c(N2CCN(S(=O)(=O)c3ccc4c(c3)NC(=O)CC(=O)N4)CC2)c1` as listed: 23 | 6 | 0 | -3 | -3 | 4493 | 90*
`CSc1ccc(C#N)cc1NC(=O)c1ccccc1` as listed: -1.0 | 7 | 0 | -7 | -12 | 4609 | -3

Screening data (PubChem)
